# PINK1 expr mod = A Quantitative High throughput Screen to Identify Chemical Modulators of PINK1 Expression | PINK1 immunofluorescence, high-content cytometry, 24 h | Potency, µM (top dose mostly 76.6 µM), for inactives: at the top dose activation (PINK1 increase), usual class: activators | 0.2% of 410,000 active | AID 624263, 2012; active = well fitted activation curve with a large enough effect; inconclusive = small, poorly fitted or top-dose-only effect; inactive = flat fitted curve, though single readings scatter; cell line not stated here;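 further: potency means the concentration at half of the fitted maximal effect; % of control where 0% means no effect; nearly all actives have a fitted effect of over 65% in size; a mitochondrial uncoupler was the plate control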
#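 Measures PINK1 amount and localization on or inside mitochondria by immunofluorescence. Stable cells get compounds at 5 concentrations for 24 hours before fixation and staining; CCCP controls included.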
# gsp agonist = qHTS for Agonist of gsp, the Etiologic Mutation Responsible for Fibrous Dysplasia/McCune-Albright Syndrome: qHTS | gsp mutant cells, cAMP HTRF, 30 min; control for the full effect not named in the record | Potency, µM (series often up to 76.9 µM), inactives show at the highest dose activation (cAMP increase), actives largely listed as activators | 0.13% of 340,000 active; active = well fitted activation curve with a large enough effect; inconclusive = small, poorly fitted or top-dose-only effect, or another doubt; inactive = no such curve, though single readings can be large or run the other way; cell line not stated here;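 further: phosphodiesterase inhibitor Ro 20-1724 added with compounds to block cAMP breakdown; potency means the concentration at half of the fitted maximal effect; nearly all actives have a fitted effect of over 60% in size; about a fifth of the inactives were tested at one dose only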
#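 Cells stably selected in G418 were plated at 2000/well, grown 16-24 hr, then given compounds in DMSO with the PDE inhibitor […] (300 uM solution added) for 30 min at 37C; cAMP was read by HTRF.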
# ClpP mod = qHTS Assay for Activators of ClpP; ATP-dependent Clp protease proteolytic subunit (Bacillus subtilis (strain 168)), P80244; purified B. subtilis ClpP, FRET peptide cleavage, 20 min; Potency, µM (highest dose often 57.5 µM), for the others: top-dose activity change, negative = active; 1.9% of 340,000 active; active = well fitted falling curve with a large enough effect; inconclusive = small, poorly fitted or top-dose-only effect; inactive = no such curve, though single readings can be large or run the other way; further: potency means the concentration at half of the fitted maximal effect; the source files actives as falling curves though it sought activators and does not explain the sign; nearly all actives have a fitted effect of over 65% in size; many hits overshoot -100%
# Target sequence (P80244 whole entry, looked up): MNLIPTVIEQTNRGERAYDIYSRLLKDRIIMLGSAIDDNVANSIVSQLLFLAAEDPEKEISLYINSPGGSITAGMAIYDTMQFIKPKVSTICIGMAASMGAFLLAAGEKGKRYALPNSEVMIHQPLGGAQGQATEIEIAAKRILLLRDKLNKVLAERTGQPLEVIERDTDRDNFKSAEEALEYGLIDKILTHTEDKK
#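 ClpP 10 microg/mL final, pH 8 Tris/KCl buffer with BSA, glycerol, Tween-20; compound pinned in; FRET-FV substrate; RT 20 min; Ex320/Em430; ΔFRET vs ADEP 5.8 microM, DMSO, no enzyme.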
# gsp antagonist = qHTS for Antagonists of gsp, the Etiologic Mutation Responsible for Fibrous Dysplasia/McCune-Albright Syndrome: qHTS; gsp-mutant cells, cAMP HTRF, 30 min; control for the full effect not named in the record; Potency, µM (titrated, usually from 76.9 µM), for the others: at the highest dose activity change, negative = inhibition, hits mostly inhibitors; 0.4% of 340,000 active; active = falling curve of any shape with a large fitted effect; inconclusive = falling curve, mostly with a smaller effect; inactive = flat or rising curve; cell line not stated here;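 further: intracellular cAMP measured with PDE inhibitor Ro 20-1724 present during compound exposure; potency means the concentration at half of the fitted maximal effect; on the % scale 0 is the no-effect control and ±100 the full control effect; nearly all actives have a fitted effect of over 65% in size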
#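 Measurement of cellular cAMP by homogeneous time-resolved fluorescence following a 30 min compound exposure at 37C. The PDE inhibitor […] was present throughout; the assay buffer was DPBS with 0.05% BSA and 0.005% Tween 20.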
# Menin MLL FP FL = qHTS Assay for Inhibitors Targeting the Menin-MLL Interaction in MLL Related Leukemias: Competition With Fluorescein Labeled MLL-derived Peptide; 290,000 tested, under 10 active; Fluorescence polarization, fluorescein-MLL peptide displacement from menin; FP activity change, % at 61.4 µM; inconclusive = falling polarisation curve, or a change in total fluorescence; inactive = total fluorescence flat and polarisation flat or rising; no compound was filed as active; the % refers to the polarisation; negative = inhibition;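 further: % of control where 0% means no effect; inhibitors lower the polarisation; unlabelled MLL peptide was the positive control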
# Sfp PPTase inh = qHTS Assay for Inhibitors of Bacillus subtilis Sfp phosphopantetheinyl transferase (PPTase); Biochemical Sfp PPTase activity, qHTS; Potency, µM, without a hit: max response, negative = inhibition, most hits filed as inhibitors; 3.5% of 310,000 active; active means well fitted inhibition curve with a large enough effect; inconclusive means small, poorly fitted or top-dose-only effect, or another doubt; inactive means no such curve, though single readings can be large or run the other way;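 further: the enzyme is Sfp with the accession as filed and its product quenches rhodamine fluorescence; potency means the concentration at half of the fitted maximal effect; 0% = enzyme reaction without inhibitor and -100% = no enzyme wells; top concentration of the series not given in the record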
#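 Buffer: 50 mM Hepes-Na pH 7.6, 10 mM MgCl2, 0.01% Nonidet P-40, 0.01% BSA. Enzyme 15 nM, pre-exposed to compound 15 min; substrates then added and fluorescence change tracked over 30 min.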
# D2 ag = Beta-Arrestin HTS for Positive Allosteric Modulators of the Human D2 Dopamine Receptor: Agonists | activation, % (no concentration beside the values) | AID 624465, 2012 | DiscoveRx PathHunter D2 beta-arrestin, luminescence, 90 min; 100% = 57 uM dopamine signal | 0.084% of 360,000 active | D(2) dopamine receptor (Homo sapiens), P14416; in the data active = activation above about 40%; inconclusive = about 15% to 40%; inactive = below about 15%; further: compound concentration not given in the record; the text of the record calls up to 30% inactive
# Target sequence (P14416 whole entry, looked up): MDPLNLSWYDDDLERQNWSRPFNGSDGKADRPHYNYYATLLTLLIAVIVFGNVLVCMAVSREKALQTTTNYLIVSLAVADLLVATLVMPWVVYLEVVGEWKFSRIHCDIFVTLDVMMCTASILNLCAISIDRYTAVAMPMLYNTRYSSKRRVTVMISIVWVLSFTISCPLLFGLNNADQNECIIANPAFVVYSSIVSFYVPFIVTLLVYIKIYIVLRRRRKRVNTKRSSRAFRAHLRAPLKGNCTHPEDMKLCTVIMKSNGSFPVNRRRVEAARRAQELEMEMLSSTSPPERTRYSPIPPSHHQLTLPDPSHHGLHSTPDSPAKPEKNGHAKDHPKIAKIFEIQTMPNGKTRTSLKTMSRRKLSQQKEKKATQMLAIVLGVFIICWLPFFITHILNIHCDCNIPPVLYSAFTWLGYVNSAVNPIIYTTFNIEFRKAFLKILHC
#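 Agonist mode: compounds alone added to overnight-plated D2 PathHunter cells for 90 min at 37 C, with 57 uM final dopamine (EC100) defining full response. Beta-arrestin recruitment detected by chemiluminescent reagent, read after 1 h at ambient temperature.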
# The depositor's hits bear a star; ? = inconclusive; / = not tested or not shown; & = joins results of further samples; [ ] = another dose, or the depositor's remark.
SMILES	PINK1 expr mod	gsp agonist	ClpP mod	gsp antagonist	Menin MLL FP FL	Sfp PPTase inh	D2 ag
CCOC(=O)c1nnc2cc(C)nn2c1C	1.3%	?	-1.6%	-7.1%	1.1	6.6%	-7.1
CNS(=O)(=O)c1cccc(C(=O)OCC(=O)Nc2cc(F)ccc2F)c1	1.9%	4.5%	1.3%	-8.4%	-2.1	9.1%	3.7
COc1ccccc1/C=N/NC(=O)c1ccc(Br)cc1	2.8%	-13.4%	/	-3.1%	1.0	-9.4%	-1.4
COc1ccc(C2(CNC(=O)Cc3ccccc3)CCCC2)cc1OC	-1.3%[38.3 µM]	-30.4%[inhibitor]	1.1%	-9.0%	-0.2	21.3%	-2.0
O=C(CN1C(=O)NC2(CCc3ccccc32)C1=O)NC1CCCCC1 (stereo unspecified)	1.9%	-2.0%	0.4%	/	/	/	-6.6
CS(=O)(=O)NCCSCc1c(F)cccc1Cl	-1.8%	-20.7%	0.9%	2.8%	2.3	16.9%	0.4
CN(C)C(=S)Nc1ccc2c(c1)OCO2	0.3%	?	/	11.4%	0.6	22.4µM*	2.2
Cc1ccc2oc(=O)n(CC(=O)O)c2c1	0.4%	-9.3%	1.5%	3.2%	0.5	4.1%	-1.8
O=C(CCC(=O)N(CC(=O)NC1CCCC1)c1ccccc1F)Nc1nccs1	-1.3%	-0.1%[15.4 µM]	/	-6.9%	-3.6	20.8%	-3.2
Cc1nnc(N/N=C/c2ccco2)n1N	4.8%	1.8%[15.4 µM]	/	-2.0%	-0.9	-15.4%	?
O=C(CCCCCn1c(=O)[nH]c2ccsc2c1=O)N1CCN(C2CCCCC2)CC1	0.7%	8.4%	-1.2%	-1.1%	0.9	11.5%	-2.0
Cc1cc(OCC(=O)N(C)C2CCCCC2)cc(C)c1Cl	3.2%	6.0%	-0.9%	-16.5%	8.6	3.7%	-3.9
COC(=O)c1ccc(-n2nnnc2SC)cc1	-5.8%[38.3 µM]	-3.4%	-1.1%	-0.7%	2.5	?	-1.5
CCN1C(=O)C(=O)N(CC(=O)Nc2ccccc2Oc2ccccc2)C1=O	-1.7%	-16.0%[15.4 µM]	-3.8%	-12.9%	2.3	19.9%	-7.0
Cn1c(CN2CCCC2)nc2cc(NC(=O)COc3ccc(Cl)cc3)ccc21	-4.5%[38.3 µM]	-47.9%[inhibitor]	0.1%	6.1%	0.9	6.8%	-0.4
CNC(=S)NNC(=O)c1cccn(Cc2cccc(C(F)(F)F)c2)c1=O	2.4%	3.2%[15.4 µM]	-1.2%	-0.2%	-0.4	15.9%	-3.2
CC(C)OCCCN1C(=O)c2ccccc2C1C(=O)NC1CCCCC1 (stereo unspecified)	0.1%[38.3 µM]	-52.9%[inhibitor]	-0.4%	-13.0%	0.3	10.4%	0.4
CC(=O)N1c2ccccc2Sc2ccc3ccccc3c21	1.5%	-5.3%	-1.2%	/	/	/	-0.9
CCOC(=O)C1=C(C)Nc2ccccc2N=C1NC(=O)c1oc2ccccc2c1COC	9.7%	-46.4%[inhibitor]	-3.0%	-28.0%	/	/	0.5
CCOC(=O)c1c(-c2ccsc2)csc1N	0.4%	-13.1%	-3.4%	0.7%	5.7	56.2µM*	0.7
COc1ccc(NC(=O)C(C)SCc2ccccc2)cc1 (stereo unspecified)	-2.3%	20.2%	-2.3%	0.9%	6.2	?	0.3
Cc1cc(C)cc(OCC(=O)N2N=C(c3cccnc3)CC2(O)C(F)(F)F)c1 (stereo unspecified)	-0.9%	?	-1.0%	-23.5%	6.5	-5.9%	-0.4
COc1cc(O)c(C(CCN2CCN(c3ccccc3)CC2)c2ccc3c(c2)OCO3)c(OC)c1 (stereo unspecified)	3.2%	/	-3.1%	4.1%	0.7&5.8	17.1%&23.3%	0.9
O=C(Nc1ccc(Cl)cn1)C1COc2ccccc2O1 (stereo unspecified)	1.1%	-1.9%[15.4 µM]	/	/	1.6	0.8%	-2.7
O=C(Nc1nnc(SCCN2CCOCC2)s1)C1CC(=O)N(c2ccc(F)cc2)C1 (stereo unspecified)	0.8%	-7.8%[15.4 µM]	-0.3%	-1.3%	/	-21.5%	-5.7
COc1ccc(C(=O)Nc2cccc(NC(=O)c3cccs3)c2)cc1	0.4%	7.3%	1.2%	-14.5%	1.2	20.1%	-2.3
O=C(O)c1cccc(N2C(=O)CSC2c2c(F)cccc2Cl)c1 (stereo unspecified)	0.8%	-3.9%	-1.8%	-1.3%	2.3	-7.3%	0.2
Cc1cccc(Nc2nc(N3CCCCC3)nc(N3CCCCC3)n2)c1	/	-42.2%[inhibitor]	-6.0%	-6.6%	-0.4	14.9%	-1.9
CC1CC(C)CN(CCCNC(=O)c2cc3c(=O)[nH]c4ccccc4c3n2C)C1 (stereo unspecified)	0.8%	1.2%	3.7%	-0.2%	-9.9	8.8%	-2.6
C=CCOc1ccccc1CNCCNC(=O)c1nonc1N	1.0%	0.1%[15.4 µM]	0.3%	-6.6%	4.9	13.4%	-3.9
CCCC(=O)OCC(=O)Nc1cc(C(C)(C)C)nn1-c1ccccc1	-0.8%	-5.2%	3.7%	0.9%	2.2	9.3%	0.1
CCOC(=O)C1=CN(Cc2cccc(F)c2)S(=O)(=O)NC1c1ccc(F)c(Cl)c1 (stereo unspecified)	3.4%	/	-1.9%	-14.5%	/	/	1.7
O=[N+]([O-])c1ccc(C=CC=Cc2ccccc2)cc1	31.6µM*	8.0%	1.1%	/	/	/	1.1
CCn1c2ccccc2c2cc(NC(=O)N3CCCCC3)ccc21	8.9%	14.0%	3.3%	/	/	/	-2.8
Cc1ccc(Nc2nc(C)nc3c2oc2ccccc23)cc1	5.7%	5.2%[15.4 µM]	/	?	-2.3	-6.9%	1.1
O=C(Nc1nccs1)C1CCN(S(=O)(=O)c2ccc(F)cc2)CC1	2.1%	21.3%	1.0%	-4.1%	/	20.8%	-9.4
CC(C)(C)NC(=O)NC(=O)COC(=O)c1cccc(NS(=O)(=O)c2ccc(F)c(F)c2)c1	-0.2%	8.8%	-16.4%	?	10.7	18.9%	2.3
O=C(O)c1cccc(Cn2c(Cl)c(/C=N/NC(=O)c3ccco3)sc2=O)c1	1.6%	19.8%	-11.3%	-4.6%	11.8	11.6%	0.5
COc1ccc(/C=C/C(=O)c2ccc([N+](=O)[O-])o2)cc1	12.4%	/	0.4%	-1.5%	/	/	4.4
Cn1nc(NC(=O)C(F)(F)F)c2ncc(-c3ccccc3)nc21	-1.1%	6.2%	0.3%	/	/	/	3.0

# Rewritten as labelled records: entries from further up
> O=C(Nc1ccc(Cl)cn1)C1COc2ccccc2O1 (stereo unspecified)
  PINK1 expr mod: 1.1%; gsp agonist: -1.9%[15.4 µM]; ClpP mod: /; gsp antagonist: /; Menin MLL FP FL: 1.6; Sfp PPTase inh: 0.8%; D2 ag: -2.7
> O=C(Nc1nnc(SCCN2CCOCC2)s1)C1CC(=O)N(c2ccc(F)cc2)C1 (stereo unspecified)
  PINK1 expr mod: 0.8%; gsp agonist: -7.8%[15.4 µM]; ClpP mod: -0.3%; gsp antagonist: -1.3%; Menin MLL FP FL: /; Sfp PPTase inh: -21.5%; D2 ag: -5.7
> COc1ccc(/C=C/C(=O)c2ccc([N+](=O)[O-])o2)cc1
  PINK1 expr mod: 12.4%; gsp agonist: /; ClpP mod: 0.4%; gsp antagonist: -1.5%; Menin MLL FP FL: /; Sfp PPTase inh: /; D2 ag: 4.4
> COc1ccc(NC(=O)C(C)SCc2ccccc2)cc1 (stereo unspecified)
  PINK1 expr mod: -2.3%; gsp agonist: 20.2%; ClpP mod: -2.3%; gsp antagonist: 0.9%; Menin MLL FP FL: 6.2; Sfp PPTase inh: ?; D2 ag: 0.3

# Two consecutive entries already listed, for reference:
SMILES	PINK1 expr mod	gsp agonist	ClpP mod	gsp antagonist	Menin MLL FP FL	Sfp PPTase inh	D2 ag
COc1ccc(/C=C/C(=O)c2ccc([N+](=O)[O-])o2)cc1	12.4%	/	0.4%	-1.5%	/	/	4.4
Cn1nc(NC(=O)C(F)(F)F)c2ncc(-c3ccccc3)nc21	-1.1%	6.2%	0.3%	/	/	/	3.0

# (next part)
SMILES	PINK1 expr mod	gsp agonist	ClpP mod	gsp antagonist	Menin MLL FP FL	Sfp PPTase inh	D2 ag
CCCCn1c(NCc2ccc(OC)cc2O)nc2ccccc21	?	-11.3%	1.1%&0.5%	/	/	/	-1.0
COc1ccccc1-n1c(=O)oc2ccc(Cl)cc2c1=O	?	11.6%	66.5%	-13.5%	-0.1	22.1%	-3.8
CCOc1ccc(S(=O)(=O)NC(C)C)cc1C(N)=O	-0.4%	3.3%[15.4 µM]	/	7.4%	-0.6	7.6%	5.8
O=C(Cn1cccc1)N1CCN(C(c2ccccc2)c2ccccc2)CC1	7.1%[38.3 µM]	9.8%	-0.8%	2.7%	9.5	-7.1%	-3.4
CS(=O)(=O)c1ccc(CNC(=O)C2(C(F)(F)F)C/C(=C/CCO)CCCO2)cc1 (stereo unspecified)	0.0%	/	1.9%	3.9%	-2.0	7.9%	-2.2
CCN(CC(=O)Nc1cccc(OC)c1)C(=O)c1cccc(S(=O)(=O)N2CCc3ccccc32)c1	3.1%	-21.3%	1.8%	-11.7%	/	/	-1.8
Cc1cccc(NC(=S)N2CCCCC2)c1	0.7%	0.8%	0.6%	13.4%	4.3	8.3%	-4.6
CCOc1cccc2cc(-c3nnc(NCc4ccco4)s3)c(=O)oc12	8.4%	?	-6.1%	-0.5%	8.9	?	-2.6
COc1ccc(C(=O)N2CCC(C(=O)Nc3ccc4c(c3)OCCO4)CC2)cc1	0.9%	?	-2.7%	8.5%	1.4	11.7%	-2.5

# Assay outcomes deposited in PubChem by National Center for Advancing Translational Sciences (NCATS).

# Rows were taken by chance; 5.1% or so of the library scored in one or more.
